# Vaccinia mCherry: inhibitors of vaccinia virus infection (mCherry reporter signal); Vaccinia virus mCherry reporter infection, fluorescence; about a quarter of the inactives have no number; 310,000 tested, 0.63% active; Potency, µM (highest dose often 36.5 µM), for inactives: top-dose activity change, negative = inhibition, hits mostly inhibitors; active = well fitted inhibition curve with a large enough effect; inconclusive = small, poorly fitted or top-dose-only effect; inactive = no such curve, though single readings can be large or run the other way; tested in A549 cells; note: nearly all actives have a fitted effect of over 35% in size; inactives centre near -10
# VACV Venus inh: vaccinia inhibition (Venus reporter) | Vaccinia virus Venus reporter expression, fluorescence | Potency, µM (top dose mostly 36.5 µM), without a hit: top-dose activity change, negative = inhibition, most hits filed as inhibitors | 330,000 tested, 0.46% active; active means well fitted inhibition curve with a large enough effect; inconclusive means small, poorly fitted or top-dose-only effect; inactive means no such curve, though single readings can be large or run the other way; tested in A549 cells; note: nearly all actives have a fitted effect of over 30% in size; inactives centre near -10
# An asterisk follows results filed as active; i = inactive; ? = inconclusive; / = not tested or not shown; [ ] = dose if it differs, or a comment. % is set by controls: 0 for no effect and ±100 for the full control effect; potency is the fitted concentration of half-maximal effect. This is a random part of the collection; any-hit rate near 0.87%.
SMILES,Vaccinia mCherry,VACV Venus inh
FC(F)(F)c1cc(CCN2CCNC[C@@H]2Cc2ccccc2)cc(C(F)(F)F)c1,13µM*,11µM*
COC(=O)[C@]12CCCCC=C1N(Cc1ccco1)C(=O)[C@H](CC(=O)NCc1ccc(OC)c(OC)c1)C2,28%,-6%
CCOC(=O)c1csc(NC(C)=O)n1,i,-18%
COc1ccc(-c2cnnn2-c2ccc(NC(=O)c3ccco3)cc2)cc1OC,-11%,-5%
Cc1ccc(O)c(NC(=O)CCS(=O)(=O)c2nc(-c3ccc4c(c3)OCO4)cc(C(F)(F)F)n2)c1,-2%,-16%
O=C1OCC/C1=C1/NCCNC1=O,-8%,-16%
CCCSc1ncc(Cl)c(C(=O)N(Cc2ccccc2)c2ccc(OC)cc2)n1,?,?
CCn1c(O)c(C=Nc2ccc(S(N)(=O)=O)cc2)c(=O)n(CC)c1=S,-29%,-22%
N#C/C(=C\c1ccc(N2CCCCC2)c([N+](=O)[O-])c1)c1nn(-c2ccccc2)c(N)c1C#N,i,-15%
CNc1ccccc1C(C)(C)c1cn(-c2ccc([N+](=O)[O-])cc2)nn1,?,0%
O=C(NCC1CCN(Cc2ccccc2Cl)CC1)Nc1cccc(Cl)c1,i,-21%
CCCC1=C(C(=O)OCC)C(c2ccc(OC)c(CSc3ccccn3)c2)C(C#N)=C(N)O1 (stereo not given),-6%,-16%
O=C(c1ccc(CSc2ccc(Cl)cc2)o1)N1CCOCC1,i,0%
COCCNC(=O)/C(C#N)=C/c1ccc(-c2ccc(S(=O)(=O)N3CCOCC3)cc2)o1,-13%,-14%
C=CCn1c(SCC(N)=O)nc2ccccc2c1=O,31%[activator],-15%
CC(SCc1ccccc1)C(=O)N/N=C/c1ccc(OCC(=O)NCc2ccco2)cc1 (stereo not given),-23%,?
CC(=O)c1cccc(OCC(=O)OCC(=O)Nc2cc(S(=O)(=O)N3CCCCC3)ccc2C)c1,-5%,-9%
COC(=O)[C@]12CCCCC=C1N(Cc1cccc3ccccc13)C(=O)[C@H](CC(=O)N1CCCC1)C2,20%,-9%
C[C@@H]1CCCCO[C@@H](CN(C)S(=O)(=O)c2ccccc2)[C@@H](C)CN([C@H](C)CO)C(=O)c2cc(N(C)C)ccc2O1,-25%,-22%
CC(Oc1cccc(Cl)c1)C(=O)Nc1ccccc1N1CCCCC1 (stereo not given),i,-7%

# Single records, as listed above.
# Cc1ccc(O)c(NC(=O)CCS(=O)(=O)c2nc(-c3ccc4c(c3)OCO4)cc(C(F)(F)F)n2)c1 reads Vaccinia mCherry: -2%; VACV Venus inh: -16%
# COC(=O)[C@]12CCCCC=C1N(Cc1ccco1)C(=O)[C@H](CC(=O)NCc1ccc(OC)c(OC)c1)C2 reads Vaccinia mCherry: 28%; VACV Venus inh: -6%

# New compounds follow
SMILES,Vaccinia mCherry,VACV Venus inh
O=C(CN(Cc1ccccc1Cl)C(=O)c1ccc(CN2CCOCC2)o1)NCC1CCCO1 (stereo not given),-12%,-5%
Cc1cc(C)cc(-n2ncc3c2CCCC3NC(=O)CCN2CCCC2=O)c1 (stereo not given),-9%,-2%
O=C(CC1Oc2ccccc2NC1=O)NCc1ccc(F)cc1 (stereo not given),-14%,-2%
CCNc1nc(NCc2ccco2)c2ccccc2n1,?,?
COc1ccc(CCNC(=O)Cc2c(C)c3cc4c(C(C)(C)C)coc4c(C)c3oc2=O)cc1OC,-29%,-22%
CCCCOC(=O)CSc1nc2ccccc2o1,-1%,4%
CCOC(=O)C/C(C)=N/NC(=O)COc1ccccc1C,i,-7%
Cc1onc(-c2ccccc2)c1C(=O)N/N=C/C(Br)=C/c1ccccc1,?,-15%
COc1ccc(-c2nc(NC(=O)c3[nH]c(C)c(C(C)=O)c3C)sc2C)cc1,-21%,-25%
CN(C)Cc1c[nH]c2nccnc12,-14%,-9%
COc1ccc(CNC(=O)C(C)n2c(=O)cc(C)c3c(C)nn(-c4ccccc4)c32)cc1 (stereo not given),-5%,7%
O=C(NCCC(=O)N1CCN(S(=O)(=O)c2ccc(Cl)cc2)CC1)Nc1ccccc1,-6%,-21%
O=C(Nc1ccccc1)Nc1cc(S(=O)(=O)N2CCOCC2)ccc1N1CCCC1,i,-13%
CC(C)CNC(=S)Nc1ccc(F)cc1,-15%,-1%
C=CCc1cc(CN2CC(C)OC(C)C2)c(O)c(OC)c1 (stereo not given),-26%,-5%
Cc1cccc(N2CCN(C(=O)c3ccccc3OCc3c(C)noc3C)CC2)c1C,-28%,?
CCCN1C(=O)C(Cc2nc3ccccc3c(=O)n2CC)c2ccccc21 (stereo not given),-1%,-15%
Cc1ccc(C(=O)NC(=S)NCc2ccco2)cc1,-9%,-3%
Cc1cc(OCCN2CCCC2)cc(C(C)C)c1,-27%,-22%
Cc1ccc(C2CC(=O)C=C(NCc3ccccc3)C2)cc1 (stereo not given),-15%,?

# A few values from the entries so far.
# For Vaccinia mCherry, COc1ccc(CNC(=O)C(C)n2c(=O)cc(C)c3c(C)nn(-c4ccccc4)c32)cc1 (stereo not given) reads -5%
# For Vaccinia mCherry, CC(C)CNC(=S)Nc1ccc(F)cc1 reads -15%
# For Vaccinia mCherry, O=C(CN(Cc1ccccc1Cl)C(=O)c1ccc(CN2CCOCC2)o1)NCC1CCCO1 (stereo not given) reads -12%
# For Vaccinia mCherry, Cc1ccc(C(=O)NC(=S)NCc2ccco2)cc1 reads -9%

# (list continues)
SMILES,Vaccinia mCherry,VACV Venus inh
O=C(Cn1cnc([N+](=O)[O-])n1)c1ccccc1,i,-7%
COc1ccc(C2C(C(=O)c3cccs3)=C(O)C(=O)N2c2cccc(C)n2)cc1 (stereo not given),-3%[7.34 µM],-3%[7.34 µM]
COC(=O)N1CCCCC1c1cc(C(=O)Nc2ccccc2Cl)no1 (stereo not given),-10%,3%
CCCN(CCC)C(=O)Cn1ccc(=N)c2ccccc21,/,-5%
Cc1n[nH]c(C)c1CCNC(=O)C1CCC(=O)N(Cc2ccccc2F)C1 (stereo not given),-11%,-7%
Cc1cc(C)c(N(C(=O)CN2C(=O)c3ccccc3S2(=O)=O)C(C(=O)NCC2CCCO2)c2ccc(F)cc2)c(C)c1 (stereo not given),?,-22%
C=CCn1c(-c2sc(-c3ccccc3)nc2C)n[nH]c1=S,i,4%
CCCCNC(=O)c1onc(CSc2ccc(C)c(C)c2)c1C(=O)O,i,-12%
O=C(NCCc1ccccc1)c1ccc2c(c1)OCCCO2,-13%,-9%
CCOC(=O)CC(NC(=O)c1cccc2c1C(=O)N(Cc1cccnc1)C2)c1ccc(OCC)c(OC)c1 (stereo not given),i,-4%
CC(C)(C)c1ccc2c(c1)OC(C(=O)N/N=C\c1ccc(-c3cccc(C(=O)O)c3)o1)CO2 (stereo not given),-10%,4%
COc1ccc(C2C=C(c3ccc(C)c(C)c3)Nc3ncnn32)c(OC)c1OC (stereo not given),-29%,-17%
Cc1cc(C(C)(C)C)ccc1Oc1cccc2c1S(=O)(=O)N(C1CCCC1)CC(COCc1ccccc1)O2 (stereo not given),i,0%
O=C1CC(N2CCc3ccccc32)C(=O)N1c1ccc(F)cc1 (stereo not given),i,-15%
COc1ccc(/C=C/CN2CCN(Cc3ccc(F)cc3)C(CCO)C2)cc1 (stereo not given),i,-11%
Cc1ccc2oc(-c3cc(NC(=O)Cc4ccccc4)ccc3Cl)nc2c1,-17%,-27%
NS(=O)(=O)c1ccc(CCNC(=O)c2cc(S(=O)(=O)N3CCCCC3)ccc2Cl)cc1,-29%,-6%
CCc1cccc(NC(=O)Cn2c(C(=O)OC)cc3sc(Cl)cc32)c1,-24%,-17%
O=C(Nc1ccc(Cl)cc1)c1cccc(N2C(=O)C3C4CCC(C4)C3C2=O)c1 (stereo not given),-20%,-25%
CCCCN(Cc1ccco1)C(=O)c1cc2c(s1)-c1c(C)cccc1OC2,-14%,-22%

# Part of the list above in order of molecular weight, highest first.
SMILES,Vaccinia mCherry,VACV Venus inh
Cc1cc(C)c(N(C(=O)CN2C(=O)c3ccccc3S2(=O)=O)C(C(=O)NCC2CCCO2)c2ccc(F)cc2)c(C)c1 (stereo not given),?,-22%
O=C1CC(N2CCc3ccccc32)C(=O)N1c1ccc(F)cc1 (stereo not given),i,-15%
O=C(NCCc1ccccc1)c1ccc2c(c1)OCCCO2,-13%,-9%
CCCN(CCC)C(=O)Cn1ccc(=N)c2ccccc21,/,-5%
O=C(Cn1cnc([N+](=O)[O-])n1)c1ccccc1,i,-7%

# The listing continues:
SMILES,Vaccinia mCherry,VACV Venus inh
O=Cc1ccc(OCc2nnc(-c3ccccc3Br)o2)cc1,-11%,5%
CC1CN(S(=O)(=O)c2ccc(F)cc2)CN1C(=O)N1CCOCC1 (stereo not given),3%,3%
Cc1ccc(-c2nnc(NC(=O)c3ccc4c(c3)OCCO4)o2)c(C)c1,-7%[7.34 µM],-9%[7.34 µM]
O=C(N[C@@H](Cc1ccccc1)C(=O)O)c1ccncc1,i,-5%
Cc1ccc(N(C)C(=O)C2CCN(S(=O)(=O)c3cn(C)cn3)CC2)cc1,i,-12%
c1ccc(CSc2nc3ncncc3[nH]2)cc1,-6%,1%
CCCNC(=O)c1c(C)nn(-c2cccc(C)c2)c1-n1cccc1,-2%,-1%
CC(Oc1ccc(Br)cc1)C(=O)Nc1ncn[nH]1 (stereo not given),i,-15%
O=C(C1=C[C@H](c2csc3ccccc23)C[C@H](OCCCCO)O1)N1CCN(Cc2ccccc2)CC1,?,-17%
COc1ccc(NC(=O)c2c(Cl)nc3ccccn23)cc1,i,-12%
Cc1ccc(Sc2cc(NCCCO)c([N+](=O)[O-])c3nonc23)cc1,-9%,-5%
CCOc1ccc(NC(=O)c2cccc(N3CCCS3(=O)=O)c2)cc1,-9%,4%
Cc1cc(OC(=O)c2ccccc2Cl)cc(=O)n1C,/,-23%
Cc1ccc2c(c1)c(C)cc(=O)n2CCC(=O)O,-16%,-18%
CC(OC(=O)c1cccs1)C(=O)NC1CC1 (stereo not given),-2%,6%
CC(C)(C)c1nnc(NC(=O)COc2ccc3c(c2)OCO3)s1,-5%,-22%
O=C(C(=O)N1CCN(C(=O)OCc2ccccc2)CC1)c1cccnc1,?,-7%
COc1ccc(-c2cc(CNS(=O)(=O)c3ccccc3)on2)cc1,?,-18%
CCCCn1c(=O)[nH]c(=O)c2c1nc(-c1ccsc1)n2Cc1ccccc1,/,-30%
O=C1NC(=O)c2cc(NC(=O)c3cccc4ccccc34)ccc21,7%,-18%
COc1ccccc1C(=O)NCCC(=O)Nc1ncccc1C,-19%,-9%
CCOCC(=O)Nc1nnc(COc2ccc(Cl)cc2)s1,-5%,5%
O=C(NCc1ccccc1)C1(C(F)(F)F)CC(CCCO)CCCO1 (stereo not given),i,-18%
CCOc1cc(C(=O)NCCCn2ccnc2)cc(OCC)c1OCC,-1%,-21%
O=C(NCc1ccccn1)c1cc(S(=O)(=O)N2CCCCCC2)ccc1Cl,-12%,-9%
CCOC1=C2[C@@H](CN(S(=O)(=O)c3ccc(C)cc3)[C@H]2c2ccccc2F)[C@H]2C(=O)N(Cc3ccccc3)C(=O)[C@H]2C1,2%,-12%
COc1cc2ccccc2cc1C(=O)Nc1ccncc1,-13%,-4%
Cc1ccc(CN2CCN(C(=O)CCc3ccccc3)CC2)cc1,-22%,-10%
O=[N+]([O-])c1cccc(C2=NC(c3ccccc3)CO2)c1 (stereo not given),-18%,-11%
CCOC(=O)c1cc(-c2ccc(C)cc2)n(CC(=O)Nc2cccc(C(C)=O)c2)c1C,-12%,-5%
COc1ccc(CNc2nc(NCc3ccc(OC)cc3)c3[nH]cnc3n2)cc1,-6%,?
COc1ccccc1CC(=O)N1CCC(CCC(=O)NC2CC2)CC1,i,-6%
CC1CC(C)CN(C(=O)COC(=O)Cc2ccc(Br)cc2)C1 (stereo not given),i,-3%
CC[C@]12c3[nH]c4ccc(OC)cc4c3CCN1C(=O)C(CC(=O)NCc1ccco1)C[C@@H]2C(=O)N1CCN(C(=O)c2ccco2)CC1 (stereo not given in full),-8%,1%
O=C(COC(=O)Cn1nnc(-c2ccccc2)n1)Nc1cc(F)ccc1F,-11%,-7%
O=C1CC(c2ccccc2)CC2=C1C(c1ccco1)n1nc(C(F)(F)F)nc1N2 (stereo not given),-16%,-21%
O=C(CNC(=O)C1CCCCC1)OCC(=O)c1ccc(Br)cc1,-17%,3%
O=C(Nc1ccc(F)cc1C(F)(F)F)C1CCN(c2ncccn2)CC1,-1%,9%
CCOc1ccc(-c2nc(C#N)c(N3CCCCCC3)o2)cc1,-4%,8%
c1ccc2c(-c3cncc4ccccc34)cncc2c1,-27%,-9%
Cn1ccnc1SCC(=O)Nc1nc2ccccc2s1,-12%,-2%
CN(Cc1ccccc1)S(=O)(=O)c1ccc(Cl)c(C(=O)N2CCC2)c1,-13%,-13%
O=[N+]([O-])c1ccc(Nc2ccccn2)c([N+](=O)[O-])c1,-10%,-8%
CC(C)(C)/C(O)=C/c1nc2ccccc2[nH]c1=O,i,-17%
CC(C)=CCC/C(C)=C/CNC(=O)CC1C[C@H](C(=O)N2CCOCC2)[C@@]2(C)c3[nH]c4ccccc4c3CCN2C1=O (stereo not given in full),?,?

# From PubChem
